Screening data: PubChem, Southern Research Specialized Biocontainment Screening Center
Mtb betalactam = beta-lactam sensitization of Mtb H37Rv, H37Rv; M. tuberculosis H37Rv growth with meropenem, percent inhibition; hits of this screen are not shown here; inhibition, % at 25 µM; 330,000 tested, 0.27% active; AID 434955, 2010;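 active = about 74% or more and at least 40 points above the plate without the antibiotic, then above 30% in a dose series; inconclusive = first-round hits that could not be retested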;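 note: growth measured after seven days incubation then overnight dye step; 0% = bacteria only wells and 100% = bacteria with antibiotic; twin plates without the antibiotic show which effects depend on it; some results filed as inactive read as strong as hits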
Active calls of the source: *; ? = inconclusive.

SMILES	Mtb betalactam
Cc1cccc(NC(=O)c2nc[nH]c2C(=O)N2CCC(C)CC2)c1	-3
CCCCn1c(N)c(N(CC)C(=O)C2CCCC2)c(=O)[nH]c1=O	-4
CCCCC1(C(=O)OCC)NC(c2ccc(O)cc2)C2C(=O)N(c3ccccc3)C(=O)C21 (stereo not drawn)	-6
C=CCN(c1ccccc1)S(=O)(=O)c1cccc(C(=O)N2CCN(c3ncccn3)CC2)c1	-3
Cc1cc(C)c(NC(=O)C2CC(=O)N(C3CCCC3)C2)c(C)c1 (stereo not drawn)	-10
C=C[C@@H]1c2ccccc2N(S(=O)(=O)c2ccc(C)cc2)[C@H](c2ccc(C(F)(F)F)cc2)C1(C#N)C#N	-8
COc1cccc(C(=O)OCC(=O)N2CCC(Cc3ccccc3)CC2)c1OC	-3
CCOC(=O)C1CCN(C(=O)C2CCC(=O)N(Cc3cccc(C(F)(F)F)c3)C2)CC1 (stereo not drawn)	-11
O=C(Cc1ccc([N+](=O)[O-])cc1)Nc1cccc(C(=O)N2CCCC2)c1	2
CCc1cccc(C)c1NC(=O)CN1C(=O)NC(C)(CCC(C)C)C1=O (stereo not drawn)	-4
COc1cccc(/C=C/C(=O)OCC(=O)NC2CCCCCCC2)c1	69
CN(c1ccccc1)S(=O)(=O)c1cccc(C(=O)NCC(=O)Nc2ccc(F)c(F)c2F)c1	-1
Cc1ccsc1C(=O)NCCc1ccco1	-2
O=C(C[C@H]1C/C=C\CC[C@H](Cc2ccc(F)cc2)C(=O)O[C@@H](c2ccccc2)CNC1=O)N[C@@H](CO)Cc1ccccc1	-12
CC(CCC(=O)O)(c1ccc(O)cc1)c1ccc(O)cc1	0
Cc1cc(C(=O)NNC(=O)C(CCC(N)=O)NS(=O)(=O)c2ccc(Cl)cc2)c(C)o1 (stereo not drawn)	-3
Cc1cc(NC(=O)CN2C(=O)N(C)C3(CCCCC3)C2=O)ccc1Br	-3
CCN(CC(=O)NC(=O)NCc1ccccc1)CC(=O)Nc1cc(Cl)ccc1C	-1
CCCNC(=O)C(Cc1ccccc1F)NC(=O)c1ccc(C#N)cc1 (stereo not drawn)	-2
Cc1ccc(NC(=O)C(c2ccccc2)c2ccccc2)c(O)c1	1
Nc1ccn(CC(=O)NCCCc2ccccc2)c(=O)n1	-1
CCCC(C)C1c2c(c(C)c(C)oc2=O)Oc2c(C)c(C)oc(=O)c21 (stereo not drawn)	9
COc1cc2c(cc1OC)CN(C(=O)c1nn(Cc3ccccc3)c(=O)c3ccccc13)CC2	10
O=C(COC(=O)CCC(=O)c1ccc(F)cc1)NCc1ccc(Cl)cc1	0
Cc1nn(-c2ccccc2)c(C)c1NC(=O)COC(=O)c1ccc(Cl)c(N)c1	-12

Sorted by formula weight (high to low): 3 of the compounds above.
SMILES	Mtb betalactam
C=C[C@@H]1c2ccccc2N(S(=O)(=O)c2ccc(C)cc2)[C@H](c2ccc(C(F)(F)F)cc2)C1(C#N)C#N	-8
Cc1nn(-c2ccccc2)c(C)c1NC(=O)COC(=O)c1ccc(Cl)c(N)c1	-12
O=C(Cc1ccc([N+](=O)[O-])cc1)Nc1cccc(C(=O)N2CCCC2)c1	2

More results follow.
SMILES	Mtb betalactam
O=C(COC(=O)c1ccc(Cl)nc1)NC1CCCCCC1	-1
CC1CCCN(CC(=O)NNC(=O)COc2ccc(Br)cc2)C1 (stereo not drawn)	3
C[C@@H](NC(=O)c1[nH]cnc1C(=O)Nc1cccc(Cl)c1)c1ccccc1	85
CCN(C[C@H]1N[C@@](Cc2ccccc2)(C(=O)OC)[C@H]2C(=O)N(C)C(=O)[C@@H]12)S(=O)(=O)c1ccc(C(F)(F)F)cc1	-3
COc1ccc(C(CNC(=O)C2COc3ccccc3O2)N2CCCC2)cc1 (stereo not drawn)	1
CCN(Cc1ccccc1)C(=O)COC(=O)[C@@H]1CCCN1C(=O)c1cccs1	-5
O=C(NC(=S)Nc1ccccc1OC(F)F)c1ccc2c(c1)OCO2	5
N#Cc1c(NC(=O)COC(=O)c2ccc(O)cc2O)sc2c1CCC2	3
CCCN(CC(=O)Nc1ccccc1OC)C(=O)CC1CCCC1	4
O=C(OCC(=O)N1CCOCC1)c1cc(-c2ccccc2)nc2ccccc12	2
CC1CN(S(=O)(=O)c2ccc(C(=O)N3c4ccccc4CC3C)cc2)CC(C)O1 (stereo not drawn)	-8
Cc1ccnn1-c1ccc(C(=O)NCc2ccccc2CN2CCOCC2)cc1	-9
O=C(O)c1cccc2c1C(=O)c1ccc(-c3ccc(F)cc3F)cc1S2(=O)=O	-11
CCC(C)c1ccccc1NC(=O)CN(CC)CC(=O)Nc1ccc2c(c1)OCCO2 (stereo not drawn)	-2
Cc1ccc(S(=O)(=O)CCC(=O)OCc2nnc(-c3ccccc3)o2)cc1	1
CCN(CC)C(=O)COc1ccc(/C(C)=N/Nc2ncc(Cl)cc2Cl)cc1	1
COc1ccccc1S(=O)(=O)Nc1cccc(S(=O)(=O)N2CCCC2)c1	-9
O=C(CCCNC(=O)c1ccc(Cl)cc1)Nc1ncccc1O	-4
CCc1noc(C)c1C(=O)NNC(=O)COc1ccccc1C	1
C[C@@H]1CN([C@H](C)CO)C(=O)c2cc(NC(=O)NC3CCCCC3)ccc2O[C@H]1CN(C)S(C)(=O)=O	0
CCOc1ccc(C(=O)OCC(=O)Nc2cccc(S(=O)(=O)N3CCCC3)c2)cc1	1
CSc1ccc(C(=O)N2CCc3ccc(NC(=O)c4ccccn4)cc3C2)cc1	98
COc1ccc(CC(=O)OCC(=O)NC(=O)Nc2ccccc2F)cc1	-2
CC(NC(=O)COC(=O)C12CC3CC(CC(Br)(C3)C1)C2)c1ccccc1 (stereo not drawn)	-6
Cc1ccccc1OCCOC(=O)c1ccc(S(=O)(=O)N2CCCC2)cc1	3

Structures shown so far that have a CF3 group:
SMILES	Mtb betalactam
C=C[C@@H]1c2ccccc2N(S(=O)(=O)c2ccc(C)cc2)[C@H](c2ccc(C(F)(F)F)cc2)C1(C#N)C#N	-8
CCOC(=O)C1CCN(C(=O)C2CCC(=O)N(Cc3cccc(C(F)(F)F)c3)C2)CC1 (stereo not drawn)	-11
CCN(C[C@H]1N[C@@](Cc2ccccc2)(C(=O)OC)[C@H]2C(=O)N(C)C(=O)[C@@H]12)S(=O)(=O)c1ccc(C(F)(F)F)cc1	-3

Going on with the list.
SMILES	Mtb betalactam
CCCN(Cc1ccc(C)cc1)C(=O)c1ccc(CNS(=O)(=O)c2ccc(C(C)=O)cc2)cc1	3
O=C(NCc1ccc2c(c1)OCO2)c1nc(Cn2cc([N+](=O)[O-])cn2)no1	8
COc1ccccc1CNC(=O)[C@H](C)NC(=O)C1CCN(C(=O)[C@H](CCSC)NC(=O)OC(C)(C)C)CC1	-16
COc1cc(OC)cc(-c2c(-c3cccs3)c3cc(-c4ccc(OC)c(OC)c4)ccc3n2C)c1	18
O=C(NCc1ccccc1Cl)C1CCC(=O)N(C2CC2)C1 (stereo not drawn)	?
COc1ccccc1OCC(=O)N1CCCC(Nc2ccc(C)c(C)c2)C1 (stereo not drawn)	?
Cc1ccc(NC(=O)C2=CC=CN3CCS(=O)(=O)N=C23)cc1	-2
COc1ccc2c(c1)[C@H]1[C@H](CO2)[C@H](c2ccccc2)[C@]2(C)C(=O)Nc3ccc(C)cc3C(=O)N12	8
CCc1ccc(Nc2nc(C)cc(C)c2C(N)=O)cc1	5
COc1cc(/C=C/C(=O)O)cc(S(=O)(=O)NNC(=O)c2cc(C)oc2C)c1OC	1
Cn1c(N)c(C(=O)COC(=O)c2ccc(-c3ccccc3)cc2)c(=O)n(C)c1=O	-1
Cc1cc(C(=O)C(C)OC(=O)c2ccc(NC(=O)CC#N)cc2)c(C)n1-c1ccc(OC(F)F)cc1 (stereo not drawn)	21
C=CCNC(=O)c1c(CS(=O)(=O)c2ccccc2)noc1C(=O)NCc1ccccc1	-4
CNC(=O)C(C)Sc1ccc(S(=O)(=O)N2CCOCC2)cn1 (stereo not drawn)	-6
CC[N+](CC)(CC)CCC(O)(c1ccccc1)C1CCCCC1 (stereo not drawn)	-7
COc1ccccc1NS(=O)(=O)c1ccc(/C=C/C(=O)N2CCN(C(C)=O)CC2)cc1	-2
CCN(C[C@H]1N[C@@](CC)(C(=O)OC)[C@H]2C(=O)N(C)C(=O)[C@@H]12)C(=O)Nc1ccc(Cl)cc1	10
Cc1ccc(NC(=O)c2ccc3c(=O)n4c(nc3c2)CCC4)cc1F	-2
CCCN(CCC)C(=O)Cc1c(-c2ccc(Cl)cc2)nc2c(Cl)cc(Cl)cn12	8
C#CCCC/C(=C\C(=O)N(C)[C@H](C(=O)N(C)[C@H](C(=O)N(C)[C@H](C(=O)N(C)[C@H](C(N)=O)C(C)C)C(C)C)C(C)C)C(C)C)OC	2
COCCn1c(Cc2ccccc2)nnc1SC(C)C(=O)NC1CC1 (stereo not drawn)	-4
CCc1cc2c(SCC(=O)NC3CC3)ncnc2s1	-3
Cc1ccc(NC(=O)Cc2ccsc2)cc1S(=O)(=O)N1CCOCC1	-14
O=C(NC(=S)Nc1ccccc1N1CCCCC1)c1ccc(F)cc1	?
O=C(NCC(=O)N1CCCCC1)c1sc2ccccc2c1Cl	35

Carrying on:
SMILES	Mtb betalactam
O=C(NCc1ccc2c(c1)OCO2)c1c(Cl)cccc1Cl	-3
C/C=C/c1ccc(OCCNCc2ccccc2)c(OC)c1	-4
CC1CCCCC1NS(=O)(=O)c1ccc2c(c1)CCC(=O)N2 (stereo not drawn)	0
Cc1cccc(C)c1NC(=O)COC(=O)C1CC1	0
COc1cc(OC)cc(C(=O)NC(C(=O)NCCc2ccccn2)C(C)C)c1 (stereo not drawn)	2
CCOC(=O)c1ccc(NC(=O)Cn2c(=O)oc3ccccc32)cc1	-1
COc1ccc(C(=O)NCC(=O)OCC(=O)Nc2ncc(Cl)cc2Cl)cc1[N+](=O)[O-]	-6
CC1(C)C[C@H]2C3=CCC4[C@@]5(C)CC[C@H](O)[C@](C)(CO)C5CC[C@@]4(C)[C@]3(C)CC[C@@]2(C)[C@H](O)[C@@H]1O (stereo partly drawn)	-4
O=C(CN1CCN(C(=O)c2cncn2-c2ccccc2)CC1)Nc1ccccc1Cl	-6
CC(=O)C[C@H](O)CC(=O)[C@@H]1OC(=O)CCCCC/C=C/Cc2ccccc21	0
CC(C)N(C(=O)[C@H]1CC(CC(=O)NCCN2CCOCC2)C(=O)N2CCc3c([nH]c4ccccc34)[C@]12C)C(C)C (stereo partly drawn)	-6
O=C(COC(=O)c1cc2ccccc2o1)NCc1ccco1	45
O=C(c1cccc(S(=O)(=O)N2CCc3ccccc32)c1)N1CCc2ccccc2C1	-5
Cc1ccc(C)c(S(=O)(=O)N(C)Cc2cccs2)c1	-7
CCN(CC(=O)Nc1ccc(NC(C)=O)cc1)C(=O)CN1C(=O)C2CCCCC2C1=O (stereo not drawn)	8
C=CC[C@@H](Cc1ccc(F)cc1)C(=O)OC[C@H]1CCCN1C(=O)[C@@H](CC=C)CC(=O)N[C@@H](CO)Cc1ccccc1	0
COc1ccc([C@H]2CC(=O)C=C(c3cccc(Cl)c3)C2)cc1OC	34
COC(=O)[C@H](CCSC)NC(=O)Cn1cnc2c(OCc3ccccc3)ncnc21	5
O=C(COC(=O)c1ccc([N+](=O)[O-])cc1)NC12CC3CC(CC(C3)C1)C2	77
O=c1oc(CCCO)cc2ccc(/C=C/c3cccc([N+](=O)[O-])c3)cc12	-4
CC(=O)[C@H]1CCC2C3CC[C@H]4C[C@@H](O)CC[C@]4(C)C3CC[C@@]21C (stereo partly drawn)	5
COc1cc2c(cc1O)CCN(C(=O)CSc1nncn1C)[C@@H]2C	-4
CSc1ccccc1OCc1cc(C(=O)N(Cc2nccn2C)C(C)C)no1	?
CC(C)c1ccc(N(C(=O)c2csnn2)C(C(=O)NC2CCCC2)c2ccncc2)cc1 (stereo not drawn)	1
COc1ccc(N(C(=O)Cn2nnc(-c3ccc(F)cc3)n2)C(C)C(=O)NC2CCCC2)cc1OC (stereo not drawn)	-4

The list goes on:
SMILES	Mtb betalactam
Cc1cc(C)cc(OCC(=O)N(Cc2ccco2)c2c(N)n(Cc3ccccc3)c(=O)[nH]c2=O)c1	0
CCOc1ccc(Br)cc1S(=O)(=O)Nc1cccc(S(=O)(=O)Nc2ccccc2C(=O)O)c1	-5
COC(=O)[C@]1(C)N[C@H](CN(C)C(=O)c2ccc(C)cc2)[C@@H]2C(=O)N(Cc3ccccc3)C(=O)[C@@H]21	-5
Cc1cnc(C(=O)OCC(=O)Nc2ccccc2-c2ccccc2)cn1	-3
O=C(NCc1cccc(Cl)c1)c1cccc(S(=O)(=O)N2CCCC2)c1	-8
COc1ccc(C(=O)C(C)OC(=O)c2sc(C)nc2C)cc1 (stereo not drawn)	6
COC(=O)C1=C(c2ccc(OC)c(OC)c2)C[C@@H]2CC[C@H]1N2C(=O)NCC1CC1	-7
O=C(NCc1ccccc1)C1(CC2CC(c3ccccc3)=NO2)CCNCC1 (stereo not drawn)	64
Cc1onc(-c2ccccc2)c1C(=O)OCC(=O)Nc1ccc(C#N)cc1	5
CCOc1ccc(S(=O)(=O)N2CCCCC2)cc1NC(=O)C1COc2ccccc2O1 (stereo not drawn)	-11
CCOc1ccccc1OCCCC(=O)NNC(=O)c1ccc(F)cc1	-2
COc1ccc(-c2c(-c3ccsc3)oc(=O)c3cc(OC)c(OC)cc23)cc1	?
O=C(COC(=O)c1cc(=O)c2ccccc2o1)Nc1ccccc1F	0
O=C(NCC(c1ccco1)N1CCCC1)c1ccc(-n2cccn2)cc1 (stereo not drawn)	-11

Compounds above with bromine (4):
SMILES	Mtb betalactam
Cc1cc(NC(=O)CN2C(=O)N(C)C3(CCCCC3)C2=O)ccc1Br	-3
CC1CCCN(CC(=O)NNC(=O)COc2ccc(Br)cc2)C1 (stereo not drawn)	3
CC(NC(=O)COC(=O)C12CC3CC(CC(Br)(C3)C1)C2)c1ccccc1 (stereo not drawn)	-6
CCOc1ccc(Br)cc1S(=O)(=O)Nc1cccc(S(=O)(=O)Nc2ccccc2C(=O)O)c1	-5

Some of the compounds tested. The share of hits here may be higher or lower than overall.
